MT1-MMP act inh = blockers of MT1-MMP proenzyme processing, primary screen, HT1080 RFP-PRO-GFP cells, GFP/RFP fluorescence; GFP/RFP ratio fluorescence, overnight; percent of plate control window, DMSO zero; Matrix metalloproteinase-14 (Homo sapiens), P50281; GFP/RFP ratio change, % at 20 µM; AID 651647, 2012; 360,000 tested, 0.061% active;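 active = GFP/RFP ratio change of at least 30% with cell ATP level not reduced by more than half and red fluorescence within 50% of control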; also: strong numbers were not always called active
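Read-out: GFP/RFP fluorescence ratio; Test system: RFP-PRO-GFP reporter HT1080 cells; Compound dosing: single-point 20 µM compound, 1% DMSO; Times: overnight compound exposure at 37 °C.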
PABP polyA inh = PABP poly(A) RNA binding inhibitors, primary screen, biochemical, fluorescence polarization, uHTS; Polyadenylate-binding protein 1 (Homo sapiens), P11940; inhibition, % at 35 µM; 290,000 tested, 1% active; AID 2014, 2009;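 active = 50% or more with normal probe brightness, or confirmed in later tests; about a fifth of its hits are not listed in these tables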;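 also: calls also rest on retests at 20 µM and on dose response follow-up; controls were probe without protein and protein plus probe with vehicle; some compounds called inactive have numbers as strong as hits; many hits fall short of the cut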
Target sequence (P11940 whole entry, looked up): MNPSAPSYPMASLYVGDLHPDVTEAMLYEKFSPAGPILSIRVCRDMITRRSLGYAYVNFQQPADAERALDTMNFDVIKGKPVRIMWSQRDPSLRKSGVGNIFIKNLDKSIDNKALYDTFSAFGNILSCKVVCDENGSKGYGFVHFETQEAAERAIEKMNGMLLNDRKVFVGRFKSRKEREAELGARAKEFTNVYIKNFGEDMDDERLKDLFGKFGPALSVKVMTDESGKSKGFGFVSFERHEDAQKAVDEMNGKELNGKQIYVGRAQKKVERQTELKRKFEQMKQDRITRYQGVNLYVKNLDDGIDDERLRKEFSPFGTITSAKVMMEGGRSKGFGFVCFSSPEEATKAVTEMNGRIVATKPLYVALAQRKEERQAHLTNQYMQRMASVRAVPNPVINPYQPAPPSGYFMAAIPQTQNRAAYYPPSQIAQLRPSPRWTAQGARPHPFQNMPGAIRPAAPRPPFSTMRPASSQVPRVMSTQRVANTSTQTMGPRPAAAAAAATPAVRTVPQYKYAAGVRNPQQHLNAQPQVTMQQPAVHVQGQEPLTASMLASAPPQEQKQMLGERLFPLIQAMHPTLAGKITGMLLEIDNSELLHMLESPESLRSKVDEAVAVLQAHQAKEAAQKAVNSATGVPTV
Env fusion inh = inhibitors of HIV-1 Env-driven cell-cell fusion, primary screen, HeLa-JRFL effector, CEM21 target cells, luciferase. 360,000 tested, 1.1% active. AID 651610, 2012. inhibition, % at 12.3 µM;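 active = mean replicate inhibition score of at least 50 and every replicate individually at or above 50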;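 also: 0% = plate neutral controls and 100% = maraviroc near 300 nM; one replicate is shown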
CSC inhib = cancer stem cell viability inhibitors, primary screen, luminescence | cancer stem cell-like cells viability | inhibition, % at 7.5 µM | 300,000 tested, 1.1% active;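 active = mean at 75% or more and at least half the replicates too; tested in HMLE shEcad cells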;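 also: 0% = median of negative and 100% = median of positive control wells; the first replicate is given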
UUG fidelity = modulators of yeast start codon fidelity, primary screen, whole organism, S. cerevisiae, single point, plate reader | S. cerevisiae UUG-firefly luciferase reporter, luminescence/redox ratio | activity score, % at 18.7 µM | 350,000 tested, 0.13% active | AID 602363, 2012;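 active = replicate mean at a twofold rise or more, about +100% in these data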;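 also: firefly luciferase made from a UUG start codon reports start codon fidelity; reporter light over untreated wells divided by growth signal over untreated wells; some hits fall short of that in this replicate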
eIF4H FP inh = human eIF4H binding inhibitors, primary screen, translation initiation inhibitor project, biochemical, uHTS, fluorescence polarization. eIF4H fluorescence polarization binding assay. inhibition, % at 35 µM. 290,000 tested, 0.94% active;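 active = 50% or more with normal probe brightness, or confirmed in later tests; about a fifth of its hits are not listed in these tables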;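 also: calls also rest on retests at 20 µM and on dose response follow-up; 0% = protein and probe with vehicle and 100% = probe without protein; strong numbers were not always called active; many hits fall short of the cut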
Rce1 inh = yeast Rce1p protease inhibitors, primary screen, biochemical, fluorescence, cell-free homogeneous; yeast membranes, quenched prenylated peptide cleavage fluorescence; AID 2563, 2010; CAAX prenyl protease 2 (Saccharomyces cerevisiae (strain ATCC 204508 / S288c)), Q03530; 290,000 tested, 0.27% active; calls only;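 active = fall in fluorescence gain of 50% or more versus controls, with final raw signal at or below 3038400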;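 also: plate controls were neutral control wells for no effect and wells lacking membranes for full effect; tested at 10 µM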
Target sequence (Q03530 whole entry, looked up): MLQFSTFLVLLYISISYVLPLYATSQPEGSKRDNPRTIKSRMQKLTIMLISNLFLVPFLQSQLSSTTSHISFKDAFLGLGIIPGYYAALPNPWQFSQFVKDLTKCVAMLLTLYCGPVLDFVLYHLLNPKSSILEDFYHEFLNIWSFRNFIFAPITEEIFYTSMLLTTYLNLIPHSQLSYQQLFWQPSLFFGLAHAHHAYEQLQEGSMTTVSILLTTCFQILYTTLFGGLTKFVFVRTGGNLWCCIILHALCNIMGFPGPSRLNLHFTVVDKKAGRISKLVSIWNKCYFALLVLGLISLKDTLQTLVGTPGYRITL
eIF4H FP inh retest = recorded beside eIF4H FP inh, whose call it bears; inhibition, %; compound at 20 µM; confirmation average;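 mean of two retest wells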
PABP polyA inh retest = recorded beside PABP polyA inh, whose call it bears; inhibition, %; compound at 20 µM; confirmation repeats;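 mean of two retest wells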
MT1-MMP act inh RFP = further read-out of MT1-MMP act inh, marked with its call; RFP signal change, %; measured here: RFP expression control read;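 0 = vehicle wells; hits needed this value within 50% of zero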
Starred values were filed as active, the others as inactive; i = inactive; . = not tested or not shown; + = active, no number.

SMILES | MT1-MMP act inh | MT1-MMP act inh RFP | PABP polyA inh | Env fusion inh | CSC inhib | UUG fidelity | eIF4H FP inh | Rce1 inh | others
Cn1c(=O)n(C)c2cc(/C=N/N=C3/NC(=O)C(CC(=O)O)S3)ccc21 (centres undefined) | 1 | 3 | -2 | 16 | 2 | . | 47 | i
CCOC(=O)c1ccc(N/C=C2/CCCC(C)C2=O)cc1 (centres undefined) | -1 | 3 | -3 | . | -15 | -15 | -10 | i
O=[N+]([O-])c1cccnc1N/N=C/c1ccccc1O | -2 | -2 | 2 | 7 | 53 | . | 5 | i
O=c1[nH]c(=S)[nH]c2c1C(c1ccc(Cl)cc1)OC(C1CCCCC1)C2 (centres undefined) | -3 | -11 | . | -15 | . | -13 | . | .
CCCc1nc2ccccc2c(=O)n1-c1c(C)n(C)n(-c2ccccc2)c1=O | 5 | 9 | -6 | . | . | 1 | 5 | i
COc1ccccc1C(CNc1ccc(S(=O)(=O)N2CCCC2)cc1[N+](=O)[O-])N(C)C (centres undefined) | -15 | -1 | -9 | -33 | 29 | -1 | -4 | i
O=C1c2ccccc2C(=O)N1CCSc1nnc(-c2ccco2)n1Cc1ccccc1 | -4 | -2 | 2 | 28 | -16 | -12 | -3 | i
CS(=O)(=O)n1nc(OC(=O)c2cc(Br)ccc2Cl)cc1N | 0 | 4 | -9 | 4 | . | -18 | -6 | .
CC(NC(=O)c1ccco1)c1nc(-c2ccccc2Cl)no1 (centres undefined) | 1 | 4 | 5 | -2 | 14 | -16 | -9 | i
COc1cc(OC)cc(C(=O)Nc2ccc(Cn3ccnc3)cc2)c1 | 1 | 0 | -12 | 11 | 36 | -13 | -12 | i
O=C1CC(N2CCN(c3ccccc3F)CC2)C(=O)N1c1ccc2c(c1)OCCO2 (centres undefined) | -5 | -1 | -2 | 44 | -3 | -9 | -14 | i
C=CCSc1nc(N2CCOCC2)c2c(c1C#N)CC(C)(C)N(C)C2 | -2 | -2 | 24* | 12 | . | . | 50* | i | eIF4H FP inh retest=97*;PABP polyA inh retest=104*
CCOC(=O)N1CCN(C(=O)c2cc(C)no2)CC1 | 0 | 5 | 1 | -9 | -1 | -15 | -1 | i
CCOC(=O)Nc1ccc(S(=O)(=O)NC2CCCCC2)cc1 | -9 | -7 | 0 | 27 | 3 | . | 0 | i
CCOC(=O)c1nnn(CC(=O)Nc2ccccc2OC)c1C(=O)OCC | -2 | 1 | -4 | -28 | -6 | -5 | 6 | i
O=S(=O)(c1cccc(-c2nnc3n2CCCCC3)c1)N1CCCC1 | 3 | 5 | -2 | -4 | . | -21 | -1 | i
O=C(C[n+]1cccc(O)c1)NCc1ccc(Cl)cc1 | 1 | 3 | 4 | 5 | -10 | 2 | 3 | i
Cc1cccc(C)c1OCC(=O)Nc1cccc(S(=O)(=O)N2CCCC2)c1 | 6 | -10 | . | 15 | . | -3 | . | i
Cc1ccc(C)n1CCN1CCN(C(=O)c2ccco2)CC1 | -1 | 4 | -4 | . | . | -8 | 0 | i
CCCc1nn2c(=O)cc(CSCC(=O)Nc3ccc(F)cc3)nc2s1 | 6 | 1 | -6 | 0 | 9 | -17 | -4 | i
CC(=O)Nc1ccc(N2C(=O)CC(Sc3nccc(C)n3)C2=O)cc1 (centres undefined) | 3 | -2 | -5 | -8 | -17 | 3 | -5 | i
CC(=O)Nc1ccc(C2=NN(CC#N)C(=O)SC2)cc1 | -1 | 6 | -6 | -95 | . | -15 | -12 | i
O=C1CCN(Cc2ccccc2)N1 | 6 | 6 | 2 | -10 | -12 | -4 | 1 | i
CCCCCN(C(=O)CCC(=O)OCC(=O)N(CC#N)c1ccccc1)c1c(N)n(CCCC)c(=O)[nH]c1=O | -4 | 0 | . | -1 | -2 | -3 | . | i
COc1ccc(NC(=O)C2CCN(S(=O)(=O)c3c(C)noc3C)CC2)cc1Cl | 1 | -5 | 2 | . | 3 | -7 | -15 | i

Following part:
SMILES | MT1-MMP act inh | MT1-MMP act inh RFP | PABP polyA inh | Env fusion inh | CSC inhib | UUG fidelity | eIF4H FP inh | Rce1 inh | others
COc1ccc(NC(=O)c2ccncc2)cc1S(=O)(=O)N1CCCCC1 | 7 | 1 | . | -6 | . | -6 | . | .
CN(C(=O)CNC(=O)c1ccc(Br)o1)C1CCCCC1 | -1 | 2 | -8 | -3 | 2 | -10 | 0 | i
CCc1ccc(C2CC(=O)NC(SCC(=O)OC(C)C)=C2C#N)cc1 (centres undefined) | 3 | -7 | -2 | 9 | 4 | 3 | -22 | i
CCOC(=O)c1nnsc1-c1ccc(-c2snnc2C(=O)OCC)cc1 | 3 | -2 | 3 | 5 | 12 | -17 | 8 | i
O=C(NCCN1CCN(c2ccccc2)CC1)c1cccc(Cl)c1 | 4 | 0 | 3 | 16 | 8 | -21 | -6 | i
COc1ccc(CCNC(=O)CCCN2C(=O)c3ccccc3C2=O)cc1 | 1 | 8 | -8 | 13 | -6 | . | -2 | i
COc1cc(C(=O)NC2CCN(CC(=O)NC3CCCCC3)CC2)cc(OC)c1OC | 1 | 6 | -4 | 13 | -5 | . | 13 | i
COc1ccc(C(=O)CSc2nc(C)cc(C)n2)cc1C | 2 | 0 | 4 | -29 | -5 | -11 | -1 | .
CCc1nc2ccc(C(=O)Nc3ccc(C(N)=O)cc3)cn2c1N(CCC(C)C)CCN(C)C | 0 | 3 | . | -7 | . | -12 | . | .
CC(C)(C)OC(=O)NCc1ccc(CNC(=O)c2[nH]cnc2C(=O)NCC(=O)OCc2ccccc2)cc1 | 11 | 3 | 7 | -28 | 3 | 7 | 15 | i
Cc1csc(Nc2nc(N)c(C(=O)Nc3cc(Cl)ccc3F)o2)n1 | 2 | -4 | -7 | -17 | 14 | -27 | -3 | i
CCC(=O)Nc1nnc(SCC(=O)Nc2cccc(Cl)c2)s1 | -1 | -4 | -5 | -6 | -4 | -9 | 2 | i
CC(C)(C)c1ccc(-n2ncc3c2CCCC3NC(=O)C2(C(N)=O)CC2)cc1 (centres undefined) | 13 | -28 | -3 | 6 | 20 | 20 | -8 | i
CCN(CC)CCN(Cc1cc2cc(C)c(C)cc2[nH]c1=O)C(=S)NCc1ccco1 | -4 | -1 | 49 | 1 | -1 | . | 63 | i | eIF4H FP inh retest=13;PABP polyA inh retest=1
CCOc1ccc(N/C(C)=C/C(=O)c2ccc3c(c2)OCCO3)cc1 | 1 | -2 | -3 | -12 | . | . | -6 | i
O=C(c1cnn(C(=O)COc2ccccc2F)c1)c1cc(F)ccc1O | -5 | -3 | 1 | -3 | -8 | . | 0 | i
COc1ccc(/C=C(\NC(=O)c2ccccc2)C(=O)OC[C@@H]2CCC[N+]3(C)CCCCC23)cc1OC (some centres undefined) | 0 | 1 | 10 | 3 | -9 | 7 | -1 | i
CC(/C(O)=C(\C#N)c1nc2ccccc2n1C)N1C(=O)c2ccccc2C1=O (centres undefined) | . | . | -6 | . | . | . | 6 | i
CCCCOC(=O)Nc1nc(C)c(C(=O)OCC)s1 | -1 | -2 | 15 | -167 | 6 | -10 | 2 | +
O=C(/C(=N\O)n1cncn1)c1ccc(Br)cc1Br | 1 | 5 | 22 | . | -9 | -22 | 12 | i
CCOc1ccc(NC(=O)c2ccc(NC(=S)NC3CC3)cc2)cc1 | 1 | 0 | -14 | -2 | -8 | -25 | 2 | i
NC(=O)COC(=O)CCCc1nc2ccccc2s1 | 7 | 3 | -2 | -40 | 4 | -16 | -14 | i
COc1ccccc1CNC(=O)CN(C)S(=O)(=O)c1ccc(F)cc1 | -1 | 1 | -2 | -29 | 1 | 9 | 3 | i
CC(C)(C)c1ccc(C(=O)NCc2nnc(SCC(=O)NC3CCCC3)o2)cc1 | -1 | 1 | -17 | -7 | -6 | -7 | -9 | i
CC(O)CNCc1ccc(-c2ccccc2)cc1 (centres undefined) | 8 | 0 | 1 | -44 | -2 | -21 | -9 | i

Taken from the listing, 2 compounds:
SMILES | MT1-MMP act inh | MT1-MMP act inh RFP | PABP polyA inh | Env fusion inh | CSC inhib | UUG fidelity | eIF4H FP inh | Rce1 inh | others
CCOc1ccc(NC(=O)c2ccc(NC(=S)NC3CC3)cc2)cc1 | 1 | 0 | -14 | -2 | -8 | -25 | 2 | i
NC(=O)COC(=O)CCCc1nc2ccccc2s1 | 7 | 3 | -2 | -40 | 4 | -16 | -14 | i

Remaining list, next part:
SMILES | MT1-MMP act inh | MT1-MMP act inh RFP | PABP polyA inh | Env fusion inh | CSC inhib | UUG fidelity | eIF4H FP inh | Rce1 inh | others
CCCCN1C(=O)C(=O)N(c2ccccc2)C1=S | 4 | 2 | 1 | -40 | 4 | . | 1 | i
Brc1ccc(C2CC(c3ccccc3)=Nc3ccccc3N2)cc1 (centres undefined) | -7 | -5 | -2 | -24 | 4 | . | -2 | i
CCOC(=O)C1CCN(S(=O)(=O)c2cccc(-c3cn4cc(Cl)ccc4n3)c2)CC1 | 1 | -10 | -9 | . | 12 | . | -1 | i
COc1ccc(CN(C(=O)c2ccc(CN3CCOCC3)o2)C(C(=O)NCC2CCCO2)c2ccc(F)cc2)cc1 (centres undefined) | 0 | 3 | 1 | 6 | -12 | -11 | -13 | i
COc1ccc(C(=O)OCC(=O)Nc2ncc([N+](=O)[O-])s2)cc1OC | 1 | 6 | . | . | 5 | -23 | . | .
Cc1cccc(NC(=O)c2cc(NC(=O)c3ccccc3)ccc2N2CCCCC2)c1 | -4 | -7 | -1 | -33 | . | -13 | -9 | i
COc1cccc(-n2c(=O)[nH]cc(C(=O)Nc3ccc4c(c3)OCCO4)c2=O)c1 | 1 | 2 | -6 | -1 | -13 | -16 | -12 | i
COc1ccccc1NC(=O)Nc1nc(C(N)Cc2ccccc2)cs1 (centres undefined) | 1 | -5 | . | -25 | . | -19 | . | .
CSCCC(NC(=O)c1ccccc1Cl)C(=O)NC1CCN(Cc2ccccc2)CC1 (centres undefined) | -2 | 4 | 12 | . | -5 | -11 | 6 | i
COCc1c(C(=O)NCC2COc3ccccc3O2)oc2ccccc12 (centres undefined) | -2 | -2 | . | 14 | 7 | -1 | . | .
CC(C)c1cc(C(=O)Nc2cccc(C(F)(F)F)c2)no1 | 3 | 0 | -19 | -35 | -10 | -17 | 3 | i
O=C(Cn1nnc2ccccc2c1=O)Nc1cccc(S(=O)(=O)N2CCOCC2)c1 | 2 | 3 | 9 | 3 | -11 | . | -10 | i
COc1cc(C(C(=O)NC2CCCCC2)N(C(=O)Cc2c[nH]c3ccccc23)c2ccccc2C)cc(OC)c1OC (centres undefined) | -2 | -1 | -8 | -3 | -15 | -16 | 0 | i
COc1ccc(Cl)cc1NC(=O)CSc1nc(-c2ccccc2)cc(=O)[nH]1 | -1 | -2 | 15 | 15 | 17 | -23 | -5 | i
O=C(CN1C(=O)NC2(CCc3ccccc32)C1=O)c1ccccc1 (centres undefined) | 1 | 1 | -6 | 7 | . | 4 | -6 | i
C=CCC[C@H](Cc1ccc(F)cc1)C(=O)OC[C@H](C)NC(=O)[C@H](CC=C)CC(=O)NCCO | 6 | 4 | . | 19 | -9 | 17 | . | .
CCC(C)Sc1ccc(-c2nc3ccc(C)cn3c2NCc2ccccc2)cc1OC (centres undefined) | 5 | -11 | . | . | -13 | -6 | . | i
FC(F)(F)c1cccc(N2CCN(c3ccc4nnc(-c5ccccc5)n4n3)CC2)c1 | -7 | -13 | -9 | 10 | 7 | -20 | -7 | i
Cc1cc(C)cc(NC(=O)Nc2ccc(S(=O)(=O)Nc3cc(C)on3)cc2)c1 | 3 | 2 | 22 | . | . | -4 | -6 | i

Bioassay records: PubChem, several laboratories
